Six1-Eya2 blk = qHTS Assay for Inhibitors of the Six1/Eya2 Interaction. Homeobox protein SIX1 (Homo sapiens) + Protein phosphatase EYA2 (Homo sapiens), …. AlphaScreen GST-Six1/His-Eya2 binding, biochemical; active compounds read low; control for the full effect not named in the record. activity change, % (concentration not given with the values). 0.56% of 360,000 active; in the data active = activity change below about -65%; inconclusive = about -30% to -65%; inactive = above about -30%; also: % is scaled to controls: 0 for no effect and ±100 for the full control effect
Target sequence (O00167 whole entry, looked up): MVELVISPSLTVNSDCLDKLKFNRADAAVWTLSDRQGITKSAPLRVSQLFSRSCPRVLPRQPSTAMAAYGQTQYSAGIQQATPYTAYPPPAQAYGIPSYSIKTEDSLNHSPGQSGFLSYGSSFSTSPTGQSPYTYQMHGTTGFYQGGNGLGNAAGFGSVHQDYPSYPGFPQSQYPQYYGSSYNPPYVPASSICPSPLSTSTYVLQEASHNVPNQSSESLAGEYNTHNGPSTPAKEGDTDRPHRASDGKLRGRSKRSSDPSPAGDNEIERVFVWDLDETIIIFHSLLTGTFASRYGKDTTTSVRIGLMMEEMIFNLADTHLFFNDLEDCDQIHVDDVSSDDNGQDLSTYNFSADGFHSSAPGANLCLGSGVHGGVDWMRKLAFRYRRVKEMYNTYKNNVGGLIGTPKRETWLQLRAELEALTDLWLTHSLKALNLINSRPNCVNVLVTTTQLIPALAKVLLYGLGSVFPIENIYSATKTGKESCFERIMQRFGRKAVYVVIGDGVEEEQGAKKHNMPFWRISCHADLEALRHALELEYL
Target sequence (Q15475 whole entry, looked up): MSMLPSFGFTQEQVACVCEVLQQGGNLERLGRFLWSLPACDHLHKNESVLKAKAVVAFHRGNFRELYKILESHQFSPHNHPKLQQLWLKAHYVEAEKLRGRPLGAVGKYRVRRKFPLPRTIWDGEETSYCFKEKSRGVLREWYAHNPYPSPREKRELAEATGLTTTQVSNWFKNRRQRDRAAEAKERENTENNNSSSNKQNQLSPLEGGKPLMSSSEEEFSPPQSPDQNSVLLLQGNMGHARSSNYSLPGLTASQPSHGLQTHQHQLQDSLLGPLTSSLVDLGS
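AlphaScreen luminescence read after one hour at 37 °C in darkness. Pin-transferred compounds met GST-Six1 and His-Eya2 protein (5X stock 250 nM/500 nM) plus glutathione donor and Ni-chelate acceptor beads (5X, 50 ug/mL).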
TRPML1 agonist = qHTS for Agonists of the Human Mucolipin Transient Receptor Potential 1 (TRPML1). TRPML1-expressing cells, Ca2+ dye fluorescence, FDSS; host cell line not named in the record; reference of the full effect not given here. 0.12% of 410,000 active. activation, % (concentration not given with the values). Mucolipin-1 (Homo sapiens), Q9GZU1; in the data active = activation above about 50%; inconclusive = about 30% to 50%; inactive = below about 30%; also: 0% is about no effect; the text of the record puts the active cut at 80%
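Cells: TRPML1-DL, 1X Tet inducer, ~16 h at 37 degrees C/5% CO2. Dye: ABD Ca8 no-wash + quencher, 45-90 min RT. Read: 10 s baseline, compound add, 110 s agonist phase; 54-4 EC80 (4uM final), 110 s antagonist phase.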
CtBP-E1A inh = qHTS Assay for Inhibitors of the CtBP/E1A Interaction | CtBP / adenovirus E1A interaction (AlphaScreen) | AlphaScreen GST-E1A/His-CtBP binding, 1536-well; active compounds read low; control for the full effect not named in the record | activity change, % (no concentration beside the values) | 0.49% of 340,000 active | AID 651724, 2012; in the data active means activity change below about -65%; inconclusive means about -30% to -65%; inactive means above about -30%; also: % is scaled to controls: 0 for no effect and ±100 for the full control effect
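AlphaScreen with 125 nM GST-E1A and 125 nM His-CtBP (5X stocks) in Tris pH 8.0, 300 mM NaCl, BSA, Tween 20, TCEP. Compounds preincubated 2 h at 37 deg C, then glutathione donor/nickel acceptor beads added for 1 h at 37 deg C in dark.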
D2 potentiator = Beta-Arrestin HTS for Positive Allosteric Modulators of the Human D2 Dopamine Receptor: Potentiators | 0.23% of 360,000 active | D(2) dopamine receptor (Homo sapiens), P14416 | potentiation, % (concentration not given with the values) | DiscoveRx D2 beta-arrestin cells, luminescence, 90 min; 100% = 57 uM dopamine signal; active = potentiation of 50% or more; inconclusive = 30% to 50%; inactive = 30% or less;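 also: compound concentration not given in the record; tested on top of an EC20 dose of dopamine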
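D2 cells co-treated with compound plus 50 nM dopamine (EC20) for 90 min at 37 deg C to detect potentiation. Beta-arrestin recruitment was read as enzyme-fragment luminescence after 1 h at ambient temperature. Full response was set by 57 uM dopamine.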
TRPML1 blocker = qHTS for Inhibitors of the Human Mucolipin Transient Receptor Potential 1 (TRPML1); Mucolipin-1 (Homo sapiens), Q9GZU1; TRPML1-inducible cells, Ca2+ dye fluorescence, FDSS; active compounds read low; inhibition of EC80 agonist-evoked calcium signal; activity change, negative = inhibition, % (concentration not given with the values); 0.02% of 390,000 active; in the data active means activity change below about -50%; inconclusive means about -30% to -50%; inactive means above about -30%;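 also: stimulus is agonist 54-4 at its EC80 concentration; % is scaled to controls: 0 for no effect and ±100 for the full control effect; the text of the record puts the active cut at -80%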
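Tet-induced TRPML1-DL cells loaded with Ca8 no-wash calcium dye were read kinetically on FDSS. Compound addition was followed by EC80 agonist 54-4 (4 uM final); inhibition was read over 110 s.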
TRPV1 PAM = HTS Assay for Compounds that Act as Potentiators of the Vanilloid Receptor 1. TRPV1-expressing cells, Fluo-8 calcium influx, capsaicin EC20 potentiation; host cell line not named in the record; control for the full effect not named in the record. potentiation, % at 8.33 µM. 0.02% of 320,000 active; active means potentiation above 80%; inconclusive means 30% to 80%; inactive means below 30%; also: 0% is about no effect
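Cells expressing TRPV1 were dye-loaded with Fluo-8 and read kinetically: 10 s baseline, 3 min after compound (agonist portion), then 2 min after EC20 capsaicin (allosteric enhancer portion). Calcium-bound dye fluorescence at 480/520 nm.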
Starred values were filed as active, the others as inactive; u = inconclusive; x = not tested or not shown; & = joins results of further samples.

nr | compound | Six1-Eya2 blk | TRPML1 agonist | CtBP-E1A inh | D2 potentiator | TRPML1 blocker | TRPV1 PAM
1 | O=C(O)C1C2C=CC(O2)C1C(=O)NCc1ccc(Cl)cc1 (stereo not drawn) | 4 | 0.0 | 1 | -4 | -4 | -14
2 | Cc1cc(C)c2c3c(oc2n1)C(=O)N(c1cccc(Cl)c1)CC(=O)N3 | 7 | 0.4 | 9 | -3 | 1 | -1
3 | Cc1ncc([N+](=O)[O-])n1S(=O)(=O)c1cc(Cl)ccc1Cl | 10 | 0.7 | 5 | 0 | 36 | -3
4 | Cc1ccc(OCCSc2nc3ccccc3n2CCC(=O)O)cc1 | -1 | 0.7&0.3 | -2 | -2 | 10&-2 | u
5 | O=C(NCc1ccco1)c1ccc(CS(=O)Cc2ccc(Cl)cc2)o1 (stereo not drawn) | -3 | -0.8 | -1 | 0 | 5 | -7
6 | Cc1ccc(CN2CCN(Cc3cnn(-c4ccc(Cl)cc4)c3)CC2CCO)o1 (stereo not drawn) | -9 | -0.1 | -1 | -19 | -2 | 9
7 | CN(Cc1ccccc1)C(=O)c1ccc(NC(=O)Cc2cccc(NC(=O)C3CCN(C(=O)C4CCCC4)CC3)c2)cc1 | -4 | -0.2 | 0 | -5 | 18 | -3
8 | CC(=O)c1cc(C#N)c(NCc2ccccc2)nc1C | 6 | -0.7 | 15 | -6 | -2 | 9
9 | O=c1c([N+](=O)[O-])cccn1Cc1cccc(Br)c1 | 5 | -0.5 | 1 | -2 | 14 | -4
10 | CC1=C(C(=O)OC(C)C)C(c2ccncc2)n2ncnc2N1 (stereo not drawn) | 0 | -1.2 | 5 | -8 | 15 | -16

Reprinted from the part before: 7 entries, followed by the next part.
nr | compound | Six1-Eya2 blk | TRPML1 agonist | CtBP-E1A inh | D2 potentiator | TRPML1 blocker | TRPV1 PAM
4 | Cc1ccc(OCCSc2nc3ccccc3n2CCC(=O)O)cc1 | -1 | 0.7&0.3 | -2 | -2 | 10&-2 | u
5 | O=C(NCc1ccco1)c1ccc(CS(=O)Cc2ccc(Cl)cc2)o1 (stereo not drawn) | -3 | -0.8 | -1 | 0 | 5 | -7
6 | Cc1ccc(CN2CCN(Cc3cnn(-c4ccc(Cl)cc4)c3)CC2CCO)o1 (stereo not drawn) | -9 | -0.1 | -1 | -19 | -2 | 9
7 | CN(Cc1ccccc1)C(=O)c1ccc(NC(=O)Cc2cccc(NC(=O)C3CCN(C(=O)C4CCCC4)CC3)c2)cc1 | -4 | -0.2 | 0 | -5 | 18 | -3
8 | CC(=O)c1cc(C#N)c(NCc2ccccc2)nc1C | 6 | -0.7 | 15 | -6 | -2 | 9
9 | O=c1c([N+](=O)[O-])cccn1Cc1cccc(Br)c1 | 5 | -0.5 | 1 | -2 | 14 | -4
10 | CC1=C(C(=O)OC(C)C)C(c2ccncc2)n2ncnc2N1 (stereo not drawn) | 0 | -1.2 | 5 | -8 | 15 | -16
11 | Cc1nn(Cc2ccccc2Cl)c(C)c1C(=O)Nc1nnc(C2CC2)s1 | u | 1.8 | -22 | 20 | 8 | 18
12 | S=c1[nH]nc(C2CCCCC2)n1/N=C/c1ccco1 | -2 | -1.8 | 7 | 9 | 45 | 1
13 | Cc1cc(NC(=O)c2cnn3c(C(F)(F)F)cc(-c4ccccc4)nc23)no1 | 4 | 0.1 | 4 | -6 | -5 | -8
14 | CC1(C)N=C(c2cccc(F)c2)C(=O)N1 | -1 | 0.5 | 6 | -4 | -20 | 1
15 | O=C(Cn1[nH]c(=O)c2ccccc2c1=O)OCC(=O)N(Cc1ccccc1)Cc1ccccc1 | -11 | 0.8 | -6 | -13 | -10 | -9
16 | O=C(COC(=O)c1cc(S(=O)(=O)N2CCOCC2)ccc1O)Nc1ccc2c(c1)OCO2 | -19 | -0.3 | -16 | -3 | 14 | x
17 | CNC(=O)N1c2ccccc2CCc2ccccc21 | 9 | x | x | -8 | x | -13
18 | O=[N+]([O-])c1cccc2ccc(/C=C/c3ccc(C(F)(F)F)cc3)nc12 | -17 | 0.0 | -9 | -3 | 9 | 1
19 | Cc1cc(NC(=O)/C=C/c2ccccc2Cl)no1 | 8 | 1.1 | 23 | 1 | 37 | 8
20 | COc1ccc(/C=C(\NC(=O)c2ccccc2)C(=O)NCc2ccco2)cc1 | 11 | -1.3 | 0 | -9 | -8 | -5
21 | Cc1cc(C(=O)N/N=C/c2ccc(OC(=O)c3ccccc3Br)cc2)n[nH]1 | -1 | -1.1 | 3 | 10 | -10 | 2
22 | CCCn1c(SCC(=O)c2ccc3c(c2)OCCO3)n[nH]c1=O | -1 | 0.0 | -3 | -19 | -3 | 3
23 | CCC1NC(=O)c2cccnc2-n2c1nc1cc(OC)c(OC)cc1c2=O (stereo not drawn) | 1 | 0.0 | -11 | -4 | -9 | x
24 | COc1ccc(OC)c(NCCN2C(=O)c3ccccc3C2=O)c1 | -19 | -0.8 | -2 | 9 | -6 | x
25 | CC1CCCCN1CC(=O)Nc1sccc1C#N (stereo not drawn) | 0 | 0.6 | -14 | 0 | -8 | -2
26 | COc1cccc(-c2nc3ccccc3s2)c1O | 9 | 0.0 | 13 | -2 | 0 | 1
27 | CC(=O)Nc1ccc(S(=O)(=O)N2CCCC2C(=O)O)cc1 (stereo not drawn) | 1 | -0.2 | 24 | -14 | -5 | -6
28 | NC(=O)c1c(NC(=O)c2ccccc2)sc2c1CCCC2 | -4 | 1.2 | -13 | -3 | 0 | -5
29 | C#CCOCCOCCOCCNc1nc(N2CCN(C(=O)Cn3cc(CC(C)O)nn3)CC2)nc(N2CCN(C(=O)[C@H](CCCCN)n3cc(CCCC)nn3)CC2)n1 (stereo partly drawn) | 4 | -0.1 | 6 | -6 | 1 | x
30 | Cc1nn(C(=O)c2cccc([N+](=O)[O-])c2)c(C)c1Cl | 6 | 1.9 | 6 | -4 | 14 | 1
31 | COCCn1nc2cc(C(=O)NCC34CC5CC(CC(C5)C3)C4)ccc2c1OC | 13 | 0.4 | 0 | -2 | 30 | 22
32 | CCc1ccc(NC(=O)/C(C#N)=C/c2cn(CC(=O)O)c3ccccc23)cc1 | -3 | -0.6 | x | -5 | 4 | 5
33 | COc1ccccc1N(C)S(=O)(=O)c1ccc(C(=O)NC2CCCCC2)cc1 | -16 | 1.4 | 16 | -20 | -15 | -26
34 | COc1ccc(NS(=O)(=O)c2ccc3c(c2)OCCO3)cc1OC | 1 | 3.3 | 4 | -1 | -21 | 7
35 | Cc1nc(/C(N)=N/OC(=O)c2c(-c3ccccc3Cl)noc2C)cs1 | 2 | 2.5 | 5 | u | 26 | 22
36 | O=C(Nc1cccc(C(=O)N2CCN(c3cccc(Cl)c3)CC2)c1)c1ccccc1 | -15 | 0.6 | x | -8 | 14 | 14
37 | O=C(NCc1ccncc1)C1CCN(S(=O)(=O)c2cc(Cl)ccc2Cl)CC1 | 6 | 0.1 | 5 | -1 | -22 | -9
38 | CC1CCCN(S(=O)(=O)CCNC(=O)c2ccc3c(c2)OCO3)C1 (stereo not drawn) | 1 | 0.1 | 3 | -2 | -3 | 5
39 | Cc1ccccc1-n1nc2c(c1NC(=O)c1ccco1)CS(=O)(=O)C2 | -2 | -0.7 | 0 | -5 | -5 | 8
40 | Cc1cc(C)n2c(SCc3nnc(-c4cccs4)o3)nnc2n1 | 1 | -0.3 | -16 | 9 | -1 | -10
41 | CC1CCCC(C)N1C(=O)COC(=O)c1ccc(S(=O)(=O)N(C)c2ccccc2)cc1 (stereo not drawn) | 3 | -0.1 | 1 | -7 | 0 | x
42 | COc1cccc(C(=O)Nn2cnnc2)c1OC | 2 | 0.2 | x | 8 | -12 | 0
43 | CC1CCCC(C)N1C(=O)CN1CCN(c2nc(-c3ccc(F)cc3)cs2)CC1 (stereo not drawn) | -15 | 0.0 | -16 | -3 | 1 | -13
44 | COc1ccc(Cc2nnc(Nc3ccccc3OC)[nH]c2=O)cc1 | 18 | 1.0 | 0 | -11 | -6 | 5
45 | CCN(Cc1ccccc1)C(c1ccc(Cl)cc1)c1nnnn1C(C)(C)C (stereo not drawn) | -5 | 0.4 | -5 | -21 | -15 | 8
46 | COc1ccc(-c2nc(N)ncc2Oc2ccccc2Br)c(O)c1 | -6 | 2.6 | -4 | 9 | 12 | 3
47 | CCN1C(=O)c2cccc3c(S(=O)(=O)Nc4ncccc4C)ccc1c23 | 5 | -0.2 | 17 | -10 | -8 | 4
48 | COc1ccccc1NC(=O)CSc1nnc(-c2ccccc2)o1 | -1 | 0.8 | 1 | -3 | -13 | 0
49 | CCOC(=O)N1CCN(C(=O)CN(C)S(=O)(=O)c2ccc(Cl)cc2)CC1 | 4 | 0.4 | 4 | -9 | 21 | -12
50 | CCCCNc1c(-c2cc3ccccc3o2)nc2nc(C)cc(C)n12 | 9 | -0.7 | -10 | x | x | x

2 entries from above in another layout:
48) COc1ccccc1NC(=O)CSc1nnc(-c2ccccc2)o1
  Six1-Eya2 blk: -1
  TRPML1 agonist: 0.8
  CtBP-E1A inh: 1
  D2 potentiator: -3
  TRPML1 blocker: -13
  TRPV1 PAM: 0

49) CCOC(=O)N1CCN(C(=O)CN(C)S(=O)(=O)c2ccc(Cl)cc2)CC1
  Six1-Eya2 blk: 4
  TRPML1 agonist: 0.4
  CtBP-E1A inh: 4
  D2 potentiator: -9
  TRPML1 blocker: 21
  TRPV1 PAM: -12

Going on with the list:
nr | compound | Six1-Eya2 blk | TRPML1 agonist | CtBP-E1A inh | D2 potentiator | TRPML1 blocker | TRPV1 PAM
51 | CCCn1c(C(C)Nc2nc(-c3ccc(Cl)c([N+](=O)[O-])c3)cs2)nc2cc(Cl)c(N3CCCCC3)cc21 (stereo not drawn) | -6 | -0.4 | 0 | -5 | -4 | -16
52 | COc1ccc(OC)c(Nc2nc3nonc3nc2N2CCCCC2)c1 | 6 | 0.5 | 8 | 3 | -14 | 2
53 | Cc1cc(Cl)ccc1OCC(=O)NNC(=O)c1cccnc1 | -4 | 1.9 | -6 | -16 | 32 | 2
54 | CCCn1c(C)nc2c(c1=O)c1nc3ccccc3nc1n2CCC1=CCCCC1 | 2 | 2.2 | -3 | 8 | 9 | -5
